MLL AF4-AF9 inh: MLL-AF4/AF9 protein interaction inhibition; AID 651704; P42568; AlphaScreen, biotin-AF4 peptide binding to FLAG-AF9; hit rate 0.47% among 350,000; inhibition, % at 10 µM;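 active = every replicate reaching a set inhibition limit, whatever the replicate mean, cut at about 25% in these data; inconclusive = mean inhibition reaches that limit but some replicates miss it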;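 also: 0% = plate neutral control median and 100% = total signal loss; the record names both 10 and 1 µM as test concentration; the first replicate is given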
Target sequence (P42568 whole entry, looked up): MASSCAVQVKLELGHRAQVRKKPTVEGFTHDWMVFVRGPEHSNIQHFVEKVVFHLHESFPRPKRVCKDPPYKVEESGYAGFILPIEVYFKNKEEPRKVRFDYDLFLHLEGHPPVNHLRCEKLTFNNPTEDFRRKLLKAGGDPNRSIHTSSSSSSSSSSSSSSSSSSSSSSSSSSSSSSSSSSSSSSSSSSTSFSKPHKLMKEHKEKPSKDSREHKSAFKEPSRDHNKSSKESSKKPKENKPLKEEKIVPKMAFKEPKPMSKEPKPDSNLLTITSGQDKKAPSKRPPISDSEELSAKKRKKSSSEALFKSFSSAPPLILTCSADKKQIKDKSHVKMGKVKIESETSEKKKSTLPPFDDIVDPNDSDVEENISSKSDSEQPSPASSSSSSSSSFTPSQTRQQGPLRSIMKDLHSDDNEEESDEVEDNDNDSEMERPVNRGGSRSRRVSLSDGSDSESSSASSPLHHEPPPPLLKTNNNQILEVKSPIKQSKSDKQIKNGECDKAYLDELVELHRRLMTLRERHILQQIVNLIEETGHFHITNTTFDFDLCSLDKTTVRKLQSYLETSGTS
E coli growth: E. coli growth inhibition | hit rate 0.21% among 330,000 | Escherichia coli growth, OD600, 23 h; active compounds read low | OD600 absorbance (test concentration not listed);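 active = OD600 absorbance below the run mean of sample wells minus 3.6 SD, in any replicate, cut at about 0.56 in these data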;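 also: stock transfer was 300 nL into about 60 µL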
Vif TR-FRET: inhibitors of Vif binding to APOBEC3G peptide, primary screen, biochemical, TR-FRET, GST-Vif 1-94, biotin-A3G peptide, dose response retest (AID 1117319); TR-FRET GST-Vif / biotin-A3G peptide binding; higher % means a stronger effect; test concentration not given here; strong numbers were not always called active; inhibition, %; hits with a dose series show IC50 in µM; hit rate 0.57% among 260,000;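 active = above the screen mean plus three standard deviations and confirmed in dose response; inconclusive = results disagree or hit not tested in dose response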;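 also: Vif residues 1-94 fused to GST binding biotinylated APOBEC3G peptide 110-148; 0% = full assay without inhibitor and 100% = GST in place of GST-Vif; retest series ran down from 100 µM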
FGF22 binding: binders of recombinant human FGF22 by thermal shift; Q9HCT0; SYPRO orange fluorescence; percent of sucrose octasulfate shift, DMSO zero; calls only at 9.99 µM; hit rate 1.5% among 340,000; AID 651658;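 active = melting point raised past a set limit in the mean and every replicate; inconclusive = no clear call; three in four hits are not shown here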
HNF4A DNA FP: change in binding of human HNF4 alpha to DNA; P41235; hit rate 0.3% among 360,000; HNF4a-FITC DNA binding, fluorescence polarization, 1 h; activity change, % at 10 µM; in the data active = activity change above about 30%, passing the limit was not always enough;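 also: controls were the assay level and a saturating level of protein; the project sought stronger binding though the title names inhibitors; some compounds called inactive have numbers as strong as hits; positive values seem to mean higher polarization but the record does not say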
Target sequence (P41235 whole entry, looked up): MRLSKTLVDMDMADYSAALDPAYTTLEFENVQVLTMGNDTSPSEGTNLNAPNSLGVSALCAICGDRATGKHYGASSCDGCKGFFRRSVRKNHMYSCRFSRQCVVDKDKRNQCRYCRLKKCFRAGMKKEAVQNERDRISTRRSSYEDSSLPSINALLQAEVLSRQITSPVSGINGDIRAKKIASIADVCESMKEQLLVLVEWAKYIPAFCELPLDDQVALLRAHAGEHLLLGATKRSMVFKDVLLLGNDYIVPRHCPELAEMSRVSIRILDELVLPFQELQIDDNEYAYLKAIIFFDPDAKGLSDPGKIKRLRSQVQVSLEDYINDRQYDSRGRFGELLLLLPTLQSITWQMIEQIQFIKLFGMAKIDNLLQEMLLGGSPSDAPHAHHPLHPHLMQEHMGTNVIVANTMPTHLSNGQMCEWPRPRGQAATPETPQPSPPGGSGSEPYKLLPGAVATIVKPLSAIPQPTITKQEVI
UCH37 inh: inhibitors of human deubiquitinating enzyme UCH37 | inhibition, % (test concentration not listed) | hit rate 0.33% among 330,000 | purified proteasome/UCH37, Ub-AMC cleavage fluorescence | Q9Y5K5;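 active = mean of two replicates above 20%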;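 also: 0% = compound-free wells with enzyme and 100% = wells lacking proteasome; stock transfer was 100 nL into about 20 µL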
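Material: Human UCH37 enzyme supplied as purified proteasome complex | Schedule: 30 min preincubation with enzyme, 25 min cleavage at room temperature | Detection: AMC fluorescence 355/460 nm | Measure: % inhibition of Ub-AMC cleavage fluorescence | Controls: Wells without proteasome as full block, compound-free enzyme plus substrate as uninhibited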
RanGTP-Impb inh: disruptors of Ran-importin-beta complex formation – biochemical, FRET, CFP-Ran, YFP-importin-beta, homogeneous, primary screen; cell-free CFP-Ran/YFP-importin-beta FRET ratio; inhibition, % (concentration not given with the values); hit rate 1.1% among 300,000; AID 2216;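 active = most replicates above 15%; inconclusive = exactly half above 15%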;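 also: 0% = DMSO wells and 100% = Ran loaded with GDP instead of GTP; wells of about 40 µL received 100 nL stock; the first replicate is given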
* = called active by the depositor; i = inactive; ? = inconclusive; · = no result given. An excerpt. The share of hits here may be higher or lower than overall.

SMILES	MLL AF4-AF9 inh	E coli growth	Vif TR-FRET	FGF22 binding	HNF4A DNA FP	UCH37 inh	RanGTP-Impb inh
CCOC(=O)c1c(C)[nH]c(C(=O)COC(=O)CNC(=O)C2CCCCC2)c1C	·	0.746	-5.9%	·	1.8	1.3	-4.0
Cc1ccc2cc(CN(CCCN(C)C)C(=O)NCc3ccccc3)c(=O)[nH]c2c1C	·	0.766	-5.3%	·	1.0	-1.0	-2.3
O=C(Nc1ccccc1)/C(=C/c1ccc(O)cc1)NC(=O)c1ccco1	-7.1	0.684	·	i	1.2	5.1	-1.1
Cc1ccc(C(=O)CSc2nc3ccccc3o2)cc1	·	0.679	-1.9%	·	-0.1	-0.5	2.3
CC(OC(=O)CCNS(=O)(=O)c1ccc(Cl)cc1)C(=O)N(C)Cc1ccccc1 (stereo unspecified)	-13.3	·	4.4%	i	1.9	·	·
Cc1ccc(N2C(=O)CC(Sc3nc4ccccc4o3)C2=O)cc1Cl (stereo unspecified)	·	0.722	5.7%	·	0.8	0.6	-2.9
COc1cc2nc(Cl)nc(NCCO)c2cc1OC	2.4	0.62	16.9%	i	-3.2	2.7	0.3
CCN(CC)C(=O)Cn1cc(C(=O)C(=O)NCCCN2CCOCC2)c2ccccc21	-1.1	0.68	-1.1%	i	3.8	9.4	4.1
O=C(Nc1ccc(-c2cn3c(n2)SCC3)cc1)c1ccco1	0.4	0.644	-7.1%	i	3.6	2.2	0.9
CN(C)c1c2ccccc2nc2c(F)c(F)c(F)c(F)c12	·	0.634	-2.9%	·	-5.9	-83.4	23.1*
O=C(CN1CCOc2ccccc21)NC1CCCCCCC1	1.4	0.721	-7.1%	i	0.0	6.6	0.8
CN(CC(=O)Nc1ccc(F)c(Cl)c1)S(=O)(=O)c1cccc2nsnc12	·	0.706	?	·	2.1	2.9	-4.5
Cc1ccc2nc(N(CCCN(C)C)C(=O)CCc3ccccc3)sc2c1	13.2	0.63	·	i	2.0	2.7	-1.4
CCOc1ccc(-n2c(SCC(=O)Nc3ccccc3C)n[nH]c2=O)cc1	·	0.707	7.1%	·	1.7	1.0	4.3
Cc1ccc(S(=O)(=O)N(C)CC(=O)OCC(=O)c2c(N)n(C)c(=O)n(C)c2=O)cc1	-1.4	0.679	1.1%	i	0.3	3.1	-1.2
O=C(C=Cc1ccc2c(c1)OCO2)C=Cc1ccc2c(c1)OCO2	-1.8	·	-5.6%	i	5.0	·	·
CCOC(=O)C1=C(C)NC(=S)N(C(C)=O)C1c1ccc(Cl)cc1 (stereo unspecified)	·	0.714	-1.4%	·	-3.5	3.2	-0.7
Cc1cc(NC(=O)c2ccc([N+](=O)[O-])cc2)no1	3.8	0.664	·	i	-0.9	1.7	5.4
CCn1cc(C(=O)O)c(=O)c2cnc(N3CCN(C(=S)NC(=O)c4ccc(Br)cc4)CC3)nc21	·	0.462*	-2.5%	·	·	-7.4	5.4
COc1ccccc1NC(=O)CCC(=O)c1ccc(-c2ccccc2)cc1	-2.2	0.681	-6.7%	i	33.8	3.3	-0.1
Clc1cccc(-c2ccc(C=Nc3ccc(N4CCOCC4)cc3)o2)c1Cl	5.6	0.677	5.7%	i	8.7	4.1	23.2*
CCN(c1ccc(OC)cc1)S(=O)(=O)c1nnc(NC(=O)COc2ccc(F)cc2)s1	-0.2	0.684	22.8%	i	0.0	-0.9	3.6
COc1ccc(-n2c(=O)cc(N3CCN(Cc4ccccc4)CC3)[nH]c2=O)cc1	-1.7	0.72	5.3%	i	-2.0	6.5	?
COc1ccc(CCC(=O)OCC(=O)Nc2sccc2C(N)=O)cc1OC	0.4	0.712	·	i	2.3	2.9	·
CC(=NNC(=O)c1cccc(S(=O)(=O)N2CCCC2)c1)c1ccccc1	0.6	0.719	·	i	2.2	2.9	·
CCOC(=O)/C(C#N)=C\c1c(C)cc(C)c(COC(C)=O)c1C	·	0.729	29.8%	·	2.5	1.7	6.8
O=C(COc1ccc([N+](=O)[O-])cc1)NNC(=O)C1COc2ccccc2O1 (stereo unspecified)	-3.0	·	·	i	-0.9	·	·
Cc1c(C(=O)Nc2ccc(F)cc2)c2ccccn2c1CCc1ccncc1	4.1	0.694	·	i	2.5	-108.2	3.6
c1csc(-c2nc(-c3ccc(-c4ccon4)s3)no2)c1	-7.5	0.668	-22.7%	i	0.2	-21.0	2.0
COCCNC(=O)C1(C)CCN(C(=O)/C=C/c2ccccc2)C1 (stereo unspecified)	0.1	·	·	i	-0.3	·	·

With a hit mark in RanGTP-Impb inh (from the list above):
SMILES	MLL AF4-AF9 inh	Vif TR-FRET	FGF22 binding	HNF4A DNA FP	UCH37 inh	RanGTP-Impb inh
CN(C)c1c2ccccc2nc2c(F)c(F)c(F)c(F)c12	·	-2.9%	·	-5.9	-83.4	23.1*
Clc1cccc(-c2ccc(C=Nc3ccc(N4CCOCC4)cc3)o2)c1Cl	5.6	5.7%	i	8.7	4.1	23.2*

Other structures follow:
SMILES	MLL AF4-AF9 inh	E coli growth	Vif TR-FRET	FGF22 binding	HNF4A DNA FP	UCH37 inh	RanGTP-Impb inh
Cc1ccc(CNC(=O)c2cc3cc(Br)ccc3oc2=N)cc1	1.6	0.716	·	i	2.4	1.6	4.3
Cc1ccccc1CC1(CO)CCCN(C(=O)c2cccc(Cl)c2)C1 (stereo unspecified)	4.3	0.683	-1.1%	i	5.1	2.9	-0.3
COc1ccc(CC(=O)OCC(=O)Nc2cccc(C(C)=O)c2)cc1OC	7.0	0.688	-6.0%	i	-1.2	0.8	·
Cc1ccc(-c2cn3cccnc3n2)cc1NC(=O)c1cccs1	·	0.659	·	·	-2.8	i	2.9
COc1cc(OC)c(C(=O)Nc2ccc(N(C)C)cc2)cc1OC	·	0.716	18.6%	·	3.2	2.4	-4.0
CCOc1ccccc1N1CN(Cc2ccccc2)CNC1=S	·	0.632	15.1%	i	3.7	1.4	-3.7
Nc1n[nH]c(N)c1N=Nc1cccc(C(F)(F)F)c1	0.4	0.645	-5.9%	i	2.5	11.5	2.9
Cc1cc(Cl)ccc1NC(=O)CN(C)C1=NS(=O)(=O)c2ccccc21	0.8	0.701	1.4%	i	-0.3	4.5	·
CC1CCN(C(=O)C(C)c2ccc([N+](=O)[O-])cc2)CC1 (stereo unspecified)	-1.3	0.664	-3.9%	i	0.0	7.2	-3.2
O=C(CN1CCC(NC(=O)c2ccco2)CC1)Nc1cccc2ccccc12	·	0.712	-5.2%	·	2.7	0.9	2.5
Cc1ccc(S(=O)(=O)N2CC=C(N)N2)cc1	-2.6	·	-3.4%	i	0.7	·	·
CCCOP(=O)(OCCC)C(Nc1ccc(C(C)C)cc1)c1ccc([N+](=O)[O-])cc1 (stereo unspecified)	·	0.661	10.9%	·	-1.3	4.3	?
O=C(Nc1ccccc1-c1nnn(CC(=O)N2CCCc3ccccc32)n1)c1ccc(Cl)cc1	·	0.693	6.2%	·	-2.6	-11.5	-1.3
O=C(CCn1c(=O)oc2ccccc21)NCCCN1CCOCC1	-2.5	0.697	·	i	0.3	3.7	-0.6
O=C(O)c1ccccc1C(=O)NCCc1c(C(=O)O)[nH]c2ccc(F)cc12	-12.1	0.65	·	i	2.8	3.2	3.7
CC(COc1cccc2ccccc12)CN1CCN(C)CC1 (stereo unspecified)	·	0.625	?	·	2.8	4.1	0.7
Cc1ccc(S(=O)(=O)CCSc2n[nH]c(=O)n2-c2ccccc2)cc1	-5.6	0.666	-3.0%	i	-2.1	4.4	-2.1
COc1ccc(NC(=S)N2CCC(C(=O)c3ccc(Cl)cc3)CC2)cc1	2.3	0.671	5.2%	i	-2.6	-2.5	·
CCOC(=O)c1ccc(NC(=S)N(CCCN2CCCCC2)Cc2ccco2)cc1	·	0.672	·	·	2.3	-0.6	-1.0
O=C(NNC(=O)c1nc(Cl)ccc1Cl)c1ccc(F)cc1	-4.2	0.682	0.5%	i	-3.9	2.7	1.3
O=C1CN(C(=O)CNCc2cccc(Cl)c2)c2ccccc2N1	0.6	0.681	·	i	-1.4	5.8	3.4
COc1ccccc1N1CCN(Cc2cn[nH]c2-c2ccc(F)cc2)CC1	53.1*	0.661	·	i	1.2	1.2	2.5
CC(NC(=O)c1ccccc1F)C1CC1 (stereo unspecified)	-0.7	0.646	3.7%	i	-0.1	3.7	9.1
Cc1cc(=O)oc2c(C)c(OC(C)C(=O)NCC3CCC(C(=O)O)CC3)ccc12 (stereo unspecified)	5.2	0.782	·	i	4.7	-17.3	1.2
COc1cccc(-n2nnc3c(=O)n(CC(=O)N4CCCc5ccccc54)cnc32)c1	·	0.716	5.7%	·	0.3	-0.7	-0.3
O=C(N/N=C/c1cc(Cl)cc([N+](=O)[O-])c1O)c1cc(-c2ccccn2)nc2ccccc12	3.2	·	24.4%	i	-1.2	·	-5.1
Cc1cc(C)nc(NS(=O)(=O)c2ccc(N3C(=O)c4ccccc4C3=O)cc2)n1	-0.3	0.689	·	i	-5.4	-0.8	1.6
CCC(C)CCCCNC1=NCCS1 (stereo unspecified)	0.3	0.657	·	i	-5.0	4.8	2.3
CCN(CC)c1ccc(NC(=O)CSc2nnc(N)s2)cc1C	4.1	0.702	4.3%	i	3.2	2.4	·
CC(Sc1nnc(C2CC2)n1C1CC1)C(=O)Nc1ccc(C(N)=O)cc1 (stereo unspecified)	-1.4	0.665	·	i	1.7	-1.2	·
O=C(c1cccs1)N1CCN(Cc2ccccc2)CC1	-28.5	0.642	-7.4%	i	4.0	2.0	-0.8
COc1ccc(-n2c(SCC(=O)Nc3cc(C)on3)nc3c([nH]c4ccccc43)c2=O)cc1	-6.6	0.773	·	i	1.3	3.5	-1.0
Cc1ccc(C(=O)O)cc1NC(=O)c1ccc2c(c1)C(=O)N(c1ccc([N+](=O)[O-])cc1)C2=O	-4.2	0.707	0.4%	i	-4.7	4.2	0.7
Cc1cccc(OCCCC(=O)NNC(=O)c2ccccn2)c1	1.5	·	-0.7%	i	-2.0	·	·
CCOc1cccc(CN2CCC(Oc3ccc(C(=O)N4CCCC4)cc3)CC2)c1	2.1	0.662	·	i	2.1	0.3	2.5
C=CCNC(=O)CSc1nc2sc(C)c(C)c2c(=O)[nH]1	-0.9	0.725	-2.3%	i	-2.0	5.9	7.4
O=C1CCC(=O)N1c1ccccc1-c1ccccc1	·	0.801	-4.9%	·	1.1	-4.7	-2.0
COc1ccccc1-c1nnc(SC)n1C	-0.7	0.692	·	i	0.0	4.1	-0.9
CCOc1ccc(CCNC(=O)CN2C(=O)COc3ccc(S(=O)(=O)N4CCOCC4)cc32)cc1	0.4	0.71	·	i	1.7	1.0	-1.1
CCCNC(=O)C1CCN(S(=O)(=O)c2ccc3nc4c(c(C(=O)O)c3c2)CCCCC4)CC1	-3.6	0.728	1.7%	i	0.3	5.7	?
CCC(C)C(=O)Nc1nnc(SCC(=O)Nc2ccc(F)cc2)s1 (stereo unspecified)	-2.7	0.617	·	i	-1.8	2.6	-1.1
N/C(=N\O)C1COc2ccccc2O1 (stereo unspecified)	·	·	-5.4%	·	-0.6	·	?
CCC(C)N(C(=O)COc1ccccc1C(=O)NCc1ccccc1)C1CCS(=O)(=O)C1 (stereo unspecified)	1.0	0.71	-2.1%	i	0.6	3.2	-1.8
COc1ccc(Cl)cc1NC(=O)CSc1nncn1-c1cccnc1	·	0.718	-6.8%	·	-0.5	1.8	0.1
CCc1ccccc1NC(=O)CCC(=O)Nc1nnc(C(C)C)s1	1.1	0.67	9.2%	i	5.6	2.1	6.1
CC(C)C(=O)Nc1ccc2c(c1)oc1ccccc12	·	0.765	-0.5%	·	-0.6	2.9	-0.4
